# CtBP-E1A blk: qHTS Assay for Inhibitors of the CtBP/E1A Interaction; AlphaScreen GST-E1A/His-CtBP binding, 1536-well; hits give low values; control for the full effect not named in the record; activity change, % (test concentration not listed); 0.49% of 340,000 active; in the data active means activity change below about -65%; inconclusive means about -30% to -65%; inactive means above about -30%; note: % is set by controls: 0 for no effect and ±100 for the full control effect; compound concentration not given in the record
#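 In 5 uL wells, 23 nL compound meets equimolar GST-E1A and His-CtBP (5X stock 125 nM each) for 2 h, 37 °C. Beads (5X, 50 ug/mL) then 1 h, 37 °C, dark.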
# Six1-Eya2 blk: qHTS Assay for Inhibitors of the Six1/Eya2 Interaction. Homeobox protein SIX1 (Homo sapiens) + Protein phosphatase EYA2 (Homo sapiens), …. AlphaScreen GST-Six1/His-Eya2 binding, biochemical; hits give low values; control for the full effect not named in the record. activity change, % (test concentration not listed). 0.56% of 360,000 active. AID 651725, 2012; in the data active = activity change below about -65%; inconclusive = about -30% to -65%; inactive = above about -30%; note: % is set by controls: 0 for no effect and ±100 for the full control effect; compound concentration not given in the record
# Target sequence (O00167 whole entry, looked up): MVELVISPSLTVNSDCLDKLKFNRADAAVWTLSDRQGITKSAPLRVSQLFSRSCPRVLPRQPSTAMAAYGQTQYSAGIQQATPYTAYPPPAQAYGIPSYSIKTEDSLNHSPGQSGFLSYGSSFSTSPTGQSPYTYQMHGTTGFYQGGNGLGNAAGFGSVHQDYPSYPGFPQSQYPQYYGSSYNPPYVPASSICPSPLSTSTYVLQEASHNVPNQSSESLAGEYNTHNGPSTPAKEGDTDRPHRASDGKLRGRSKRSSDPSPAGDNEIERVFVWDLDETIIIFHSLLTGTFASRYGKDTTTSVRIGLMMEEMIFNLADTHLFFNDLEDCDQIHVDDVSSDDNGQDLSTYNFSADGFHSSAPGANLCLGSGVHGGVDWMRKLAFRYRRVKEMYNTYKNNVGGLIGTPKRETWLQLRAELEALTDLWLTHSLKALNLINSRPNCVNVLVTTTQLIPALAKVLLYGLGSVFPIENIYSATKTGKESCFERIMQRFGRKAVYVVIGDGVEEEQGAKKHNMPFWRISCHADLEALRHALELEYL
# Target sequence (Q15475 whole entry, looked up): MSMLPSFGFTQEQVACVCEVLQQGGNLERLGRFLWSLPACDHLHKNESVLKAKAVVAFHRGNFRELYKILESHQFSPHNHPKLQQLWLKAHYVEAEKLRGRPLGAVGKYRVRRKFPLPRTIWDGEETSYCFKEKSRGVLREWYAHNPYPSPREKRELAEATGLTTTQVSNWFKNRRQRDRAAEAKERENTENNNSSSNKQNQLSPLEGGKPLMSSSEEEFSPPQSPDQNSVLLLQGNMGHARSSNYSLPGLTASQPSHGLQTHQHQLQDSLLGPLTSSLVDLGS
#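 Homogeneous AlphaScreen proximity assay pairing GST-Six1 with His-tagged Eya2 (added as 5X mix: 250 nM and 500 nM) in 50 mM Tris pH 8.0, 300 mM NaCl, 1 mM TCEP. Glutathione donor and nickel acceptor beads; 1 h, 37 °C, dark.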
# PINK1 expr mod: A Quantitative High throughput Screen to Identify Chemical Modulators of PINK1 Expression | PINK1 immunofluorescence, high-content cytometry, 24 h | Potency, µM (highest dose often 76.6 µM), for the others: top-dose activation (PINK1 increase), usual class: activators | 0.2% of 410,000 active | AID 624263, 2012; active = well fitted activation curve with a large enough effect; inconclusive = small, poorly fitted or top-dose-only effect; inactive = flat fitted curve, though single readings scatter; cell line not stated here;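 note: potency is the fitted concentration of half-maximal effect; % of control where 0% means no effect; nearly all actives have a fitted effect of over 65% in size; a mitochondrial uncoupler was the plate control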
#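 Decision-based qHTS: stable cells, 24 h exposure to five compound concentrations, CCCP as control. Fixed cells stained for PINK1 plus nuclear, mitochondrial and cell markers, cytometer read.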
# D2 PAM: Beta-Arrestin HTS for Positive Allosteric Modulators of the Human D2 Dopamine Receptor: Potentiators | potentiation, % (test concentration not listed) | D(2) dopamine receptor (Homo sapiens), P14416 | 0.23% of 360,000 active | AID 624464, 2012 | DiscoveRx D2 beta-arrestin cells, luminescence, 90 min; 100% = 57 uM dopamine signal; active = potentiation of 50% or more; inconclusive = 30% to 50%; inactive = 30% or less;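 note: compound concentration not given in the record; tested on top of an EC20 dose of dopamine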
#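 PathHunter beta-arrestin assay in DiscoveRx D2 cells. Compounds were added with an EC20 of dopamine (50 nM final) for 90 min at 37 deg C. Luminescence was read 1 h after detection reagent, with 57 uM dopamine as the EC100 control.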
# TRPML1 ag: qHTS for Agonists of the Human Mucolipin Transient Receptor Potential 1 (TRPML1) | Mucolipin-1 (Homo sapiens), Q9GZU1 | TRPML1-expressing cells, Ca2+ dye fluorescence, FDSS; host cell line not named in the record; reference of the full effect not given here | activation, % (test concentration not listed) | 0.12% of 410,000 active | AID 624414, 2012; in the data active = activation above about 50%; inconclusive = about 30% to 50%; inactive = below about 30%; note: 0% is about no effect; the text of the record puts the active cut at 80%
#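 Cells: TRPML1-DL, 1X Tet inducer, ~16 h at 37 degrees C/5% CO2. Dye: ABD Ca8 no-wash + quencher, 45-90 min RT. Read: 10 s baseline, compound add, 110 s agonist phase; 54-4 EC80 (4uM final), 110 s antagonist phase.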
# D2 agonist: Beta-Arrestin HTS for Positive Allosteric Modulators of the Human D2 Dopamine Receptor: Agonists. activation, % (concentration not given with the values). DiscoveRx PathHunter D2 beta-arrestin, luminescence, 90 min; 100% = 57 uM dopamine signal. 0.084% of 360,000 active; in the data active = activation above about 40%; inconclusive = about 15% to 40%; inactive = below about 15%; note: compound concentration not given in the record; the text of the record calls up to 30% inactive
#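 Agonist mode: compounds alone added to overnight-plated D2 PathHunter cells for 90 min at 37 C, with 57 uM final dopamine (EC100) defining full response. Beta-arrestin recruitment detected by chemiluminescent reagent, read after 1 h at ambient temperature.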
# * = called active by the depositor; ? = inconclusive; / = no result given; & = joins results of further samples; [ ] = another dose, or the depositor's remark. These rows are one share of the data; the hit share may differ from the screen's.
Structure	CtBP-E1A blk	Six1-Eya2 blk	PINK1 expr mod	D2 PAM	TRPML1 ag	D2 agonist
O=C1OC(c2ccc([N+](=O)[O-])cc2)=N/C1=C/N1CC2CC(C1)c1cccc(=O)n1C2 (stereo unspecified)	-25	-7	1.1%	-5	-0.2	-2.5
CCOC(=O)c1cn2nc(OP(=S)(OCC)OCC)cc2nc1C	40	40	1.1%	-10	-0.2	-2.2
COCCCn1c(=O)/c(=C/c2ccccc2OC(F)F)s/c1=C(\C#N)C(=O)NCCOC	-7	-1	?	-2	1.5	-8.2
COC(=O)C1=C(c2ccc(Cl)c(C(F)(F)F)c2)C[C@@H]2CC[C@H]1N2C(=O)NCCOc1ccccc1Cl	/	1	?	-10	0.3	-2.1
Cc1cc(O)c2c(C)c(CC(=O)N3C[C@H]4C[C@@H](C3)c3cccc(=O)n3C4)c(=O)oc2c1	7	2	0.1%	-35	/	-11
O=c1[nH]c2ccccc2n1C1CCN(C(c2cccs2)c2nnnn2Cc2ccccc2)CC1 (stereo unspecified)	-6	-11	-0.9%	/	0.8	4.7
CCN(CC)c1ccc(N=Cc2c(O)n(-c3ccc(Cl)cc3)c(=O)[nH]c2=O)cc1	-9	-4	6.1%	2	0.1	-5.9
O=C1NC(=O)C(Nc2ccc(Cl)c(Cl)c2)C(=O)N1	10	16	-0.5%	-11	0.5	-0.3
COC(=O)C1=C(c2ccc(F)cc2OCc2ccccc2)C[C@@H]2CC[C@H]1N2C(=O)NCc1ccc(OC)cc1	-5	-14	-0.4%	-2	0.9	1.3
CN(C)C(=O)Oc1ccc2c(c1)O/C(=C\c1ccccc1)C2=O	3	4	3.1%	-1	/	-2.5
COc1cc2[nH]c(=O)n(-c3ccc(C)cc3)c(=O)c2cc1OC	-3	-24	-0.7%&-0.8%	-7	-0.5&0.6	-4.5
COC(=O)C1=C(c2ccc3ccccc3c2)C[C@@H]2CC[C@H]1N2C(=O)NCCO	1	8	1.1%	-14	-0.2	-1.5

# Profiles, looked up by structure. Order of values: CtBP-E1A blk	Six1-Eya2 blk	PINK1 expr mod	D2 PAM	TRPML1 ag	D2 agonist
# `Cc1cc(O)c2c(C)c(CC(=O)N3C[C@H]4C[C@@H](C3)c3cccc(=O)n3C4)c(=O)oc2c1` is listed as 7	2	0.1%	-35	/	-11
# `O=c1[nH]c2ccccc2n1C1CCN(C(c2cccs2)c2nnnn2Cc2ccccc2)CC1` (stereo unspecified) is listed as -6	-11	-0.9%	/	0.8	4.7
# `CCOC(=O)c1cn2nc(OP(=S)(OCC)OCC)cc2nc1C` is listed as 40	40	1.1%	-10	-0.2	-2.2

# Next section
Structure	CtBP-E1A blk	Six1-Eya2 blk	PINK1 expr mod	D2 PAM	TRPML1 ag	D2 agonist
FC(F)(F)c1ccccc1N1CC1c1ccncc1 (stereo unspecified)	-4	-7	2.5%	-10	1.2	1.6
Cn1c(N2CCNCC2)nc2ccccc21	0	3	4.0%[38.3 µM]	-6	0.4	-1.4
C=CC1CN2CCC1CC2C(OC(C)=O)c1ccnc2ccc(OC)cc12 (stereo unspecified)	0	-15	0.1%	-5	-0.1	-6.0
O=c1[nH]c(=O)n(-c2ccc(Cl)cc2)c(O)c1C=NCCN1CCCCC1	0	3	0.2%	-6	1.4	-2.7
CC(Cc1ccccc1Sc1ccc(O)cc1)N(C)C (stereo unspecified)	-2	-3	-0.7%	-46	0.4	-1.5
CCCCn1c(=O)c(C=Nc2cccnc2Cl)c(O)n(CCCCl)c1=O	3	8	-1.1%	-6	1.1	-1.3
O=C(CN1C(=O)COc2ccccc21)N1CCC2(CC1)OCCO2	1	1	0.5%	-6	0.1	-3.9
Cc1nc2cc(C(F)(F)F)ccc2n1C1CCN(Cc2nnnn2Cc2ccc3c(c2)OCO3)CC1	-9	-4	-1.8%	-7	6.3	-0.5
CCc1cc(=O)oc2c(C)c(OCC(=O)N3C[C@H]4C[C@@H](C3)c3cccc(=O)n3C4)ccc12	-2	5	-0.4%	-18	/	5.1
Clc1cccc(Cl)c1NC1=NCCS1	-11	61	4.9%	-8	0.1	0.0
O=c1c2ccccc2nc(-c2ccco2)n1-c1ccc(Br)cc1	9	-17	2.2%	-4	3.0	-5.3
Cc1ccc2nsnc2c1-n1c(C)nc2ccccc2c1=O	3	1	2.5%[38.3 µM]	-4	0.9	-3.2
O=C(C(=O)N1CCOCC1)c1cn(CCCOc2ccccc2)c2ccccc12	-1	1	-0.4%	-10	0.2	-1.2
CN1CC[C@@]23CCCC[C@@H]2[C@@H]1Cc1ccc(O)cc13	2	-8	-0.6%	2	-0.1	-5.5
CCOC(=O)c1nc2ccccc2c(=O)n1-c1ccc(C)cc1C	14	8	-1.2%	-9	0.2	0.7
CCN(CC)CCOC(=O)C(O)(c1ccccc1)c1ccccc1	5	2	-0.7%	-3	0.5	-8.2
C1CCC(NC2CCCCC2)CC1	1	1	0.7%	8	-0.4	5.2
CCOC(=O)C1C2NC(=O)N(Cc3ccccc3)C1(C)Oc1c(OC)cccc12 (stereo unspecified)	-16	1	?	-11	0.3	0.2
C/C(=N\N(C)c1ccccc1)c1c(O)[nH]c(=O)[nH]c1=O	3	-4	-1.4%	0	0.5	6.4
C[C@H]1C[C@@H](C)C(=O)[C@@H]([C@H](O)CC2CC(=O)NC(=O)C2)C1	8	4	-1.1%	-36	/	-3.7
CCOC(=O)C1=C(N)Oc2c(c(=O)oc3ccccc23)C12C(=O)N(C)c1ccccc12 (stereo unspecified)	-11	-5	-1.7%&-0.2%	-4	0.2&0.5	-7.2
COc1cc2c3cc1Oc1c(OC)c(OC)cc4c1[C@H](Cc1ccc(cc1)Oc1cc(ccc1O)C[C@H]3N(C)CC2)N(C)CC4	-21	-11	0.6%	-14	2.8	-4.0
O=C1NC(=O)C2(Cc3ccccc3N3CCCC32)C(=O)N1c1ccc(Cl)cc1 (stereo unspecified)	-10	-4	1.8%[38.3 µM]	-3	-0.2	-1.4
O=C(CN1CC=C(c2ccccc2)CC1)NC(=O)NC1CCCCC1	2	-4	0.0%	-5	-0.2	-0.1
CCOP(=O)(OCC)C(O)c1cccnc1 (stereo unspecified)	-13	8	-1.3%	-2	1.0	-1.6
CC(C)OP(=O)(O)NC(=O)c1ccccc1	14	8	0.3%	-8	-1.4	-1.2
CCOC(=O)CC1c2ccccc2-n2nncc2CN1CC1CCCCC1 (stereo unspecified)	2	2	4.0%	1	0.6	-4.1
CCCCCCC(=O)c1c(O)n(-c2ccccc2OC)c(=O)[nH]c1=O (tested in a mixture with another compound)	16	10	-1.8%	-9	-0.3	-1.4
Cc1cccc(CN2CCN(c3ccc(Cl)cc3)CC2)c1	/	-19	?	-7	0.7	-5.6
CN1CCN(c2c(F)cc([N+](=O)[O-])c(N)c2Br)CC1	-2	-4	-2.2%	-16	-0.1	-4.5
Cc1cc(Br)ccc1N1C(=O)CC(=O)NC1=O	-2	-1	-4.0%	-4	-1.0	1.7
Oc1c(Br)cc(-c2ccccc2)cc1Br	0	2	-0.1%	-4	-1.1	2.4
CCCC(C)n1[nH]c(=O)c2c1NC(=O)CSC2c1ccccc1 (stereo unspecified)	1	0	-0.8%	-5	1.4	5.9
c1cnc(OCCN2CC2)cn1	-28	16	-5.1%	0	1.0	6.4
CCN1CCN(CC(c2ccccc2)c2ccccc2)CC1	-1	0	-1.7%	-12	0.0	-2.8
CC(C)(C)C(=O)N1Cc2cc(-c3cccc(F)c3)ccc2-n2nncc2C1	0	3	-0.3%	-8	-0.3	-4.7

# Gathered by group: the entries above containing a nitro group on carbon (2)
Structure	CtBP-E1A blk	Six1-Eya2 blk	PINK1 expr mod	D2 PAM	TRPML1 ag	D2 agonist
O=C1OC(c2ccc([N+](=O)[O-])cc2)=N/C1=C/N1CC2CC(C1)c1cccc(=O)n1C2 (stereo unspecified)	-25	-7	1.1%	-5	-0.2	-2.5
CN1CCN(c2c(F)cc([N+](=O)[O-])c(N)c2Br)CC1	-2	-4	-2.2%	-16	-0.1	-4.5

# Of the compounds above, these have a CF3 group:
Structure	CtBP-E1A blk	Six1-Eya2 blk	PINK1 expr mod	D2 PAM	TRPML1 ag	D2 agonist
COC(=O)C1=C(c2ccc(Cl)c(C(F)(F)F)c2)C[C@@H]2CC[C@H]1N2C(=O)NCCOc1ccccc1Cl	/	1	?	-10	0.3	-2.1
FC(F)(F)c1ccccc1N1CC1c1ccncc1 (stereo unspecified)	-4	-7	2.5%	-10	1.2	1.6
Cc1nc2cc(C(F)(F)F)ccc2n1C1CCN(Cc2nnnn2Cc2ccc3c(c2)OCO3)CC1	-9	-4	-1.8%	-7	6.3	-0.5

# The list goes on:
Structure	CtBP-E1A blk	Six1-Eya2 blk	PINK1 expr mod	D2 PAM	TRPML1 ag	D2 agonist
CCOP(=O)(C#Cc1ccccc1)C(O)c1ccc(Br)cc1 (stereo unspecified)	-20	-9	-0.6%	-13	3.2	-3.2
O=C(C1CC(c2ccc(Cl)c(Cl)c2)=NO1)N1CCC2(CC1)OCCO2 (stereo unspecified)	8	3	3.4%[38.3 µM]	3	-0.1	1.0
O=S(=O)(c1cccc2ccccc12)N1Cc2ccccc2-n2nncc2C1	-12	-2	-0.2%	-2	-0.1	-7.4
CC1C(=O)OC2CCN3CC=C(COC(=O)C(C)(O)C1(C)O)C23 (stereo unspecified)	2	8	-0.5%	28	/	3.3
CC1C=CCCC12C(=O)NC(=O)NC2=O (stereo unspecified)	7	5	-3.5%	-17	0.0	-4.1
O=C1C2CCN(CC2)C12CC2c1ccc(C(F)(F)F)cc1 (stereo unspecified)	0	1	3.2%	-3	0.7	1.3
Cc1cc(Br)c(NC(=O)CN2CC=C(c3ccccc3)CC2)c(Br)c1	-4	-2	?	-8	-0.7	-2.8
CNCC1(c2ccccc2)CCCC1	4	7	1.9%	3	0.1	1.4
Cc1ccc2cc(CNCCc3ccccc3C)c(=O)[nH]c2c1	-1	1	1.0%	-30	-1.4	-3.9
O=C1NC(=O)N(c2ccc(F)cc2)C(=O)/C1=C/c1ccsc1	4	14	-1.2%	7	-0.3	2.6
C[N+]1(C)C2CCC1CC(OC(=O)C(CO)c1ccccc1)C2 (stereo unspecified)	/	-6	2.5%	-1	1.0	-5.7
CC12CCC3C(CCC4CC(=O)C(C(O)C(F)(F)F)CC43C)C1CCC2O (stereo unspecified)	-2	1	0.7%	-3	-0.4	2.9
CCC(=Nc1ccc2c(c1)CCC2)c1c(O)n(C)c(=O)n(C)c1=O	0	6	-1.6%	6	0.0	-1.2
COC1CCCCC1NCCc1ccccc1 (stereo unspecified)	6	5	2.7%	-11	-0.2	-6.6
COc1ccc2[nH]cc(CCN)c2c1	-13	-13	-1.5%&0.4%	-48	/	4.7
CC12CN3CCN(CC(C3)C1O)C2 (stereo unspecified)	4	-8	-0.5%	-34	0.7	0.6
C=CCOC(=O)c1ccccc1N	-10	-1	0.2%	-3	-0.1	3.2
